Vaccinia stage: Vaccinia orthopox stage-specific inhibition. Vaccinia-infected cells, mCherry/Venus stage reporter fluorescence; active compounds read low; some inactives read as strong as hits. activity change (mCherry), % (test concentration not listed). 89,000 compounds, 0.01% hits;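 active = mCherry past -33% and 40 or more points under the early reporter, replicates agreeing; inconclusive = past -33% without that gap or agreement; tested in A549 cells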;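 note: scaled between vehicle wells and reference inhibitor wells; 23 nL library stock went into each well; one replicate is shown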
Vaccinia stage Venus: further read-out of Vaccinia stage, marked with its call; activity change (Venus), %; measured here: Venus reporter, other viral stage;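 negative = less Venus signal; first of two replicates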
* marks the source's active call; other numbers are inactive results; ? = inconclusive; · = not tested or not shown.

The opening 3 entries (preview)
SMILES	Vaccinia stage	Vaccinia stage Venus
C[C@H]1CCCCO[C@@H](CN(C)Cc2ccc(C(F)(F)F)cc2)[C@@H](C)CN([C@@H](C)CO)C(=O)c2cc(NC(=O)c3ccccc3)ccc2O1	?	·
COc1ccc(CN(C)C[C@@H]2Oc3ccc(NC(=O)Cc4cn(C)c5ccccc45)cc3C(=O)N([C@@H](C)CO)C[C@@H]2C)cc1	-2	1
C[C@@H]1CN([C@@H](C)CO)C(=O)c2cc(NC(=O)Nc3ccc(F)cc3)ccc2O[C@@H](C)CCCCO[C@H]1CN(C)S(=O)(=O)c1cccs1	-19	-4

The whole of this part, from the first entry:
SMILES	Vaccinia stage	Vaccinia stage Venus
C[C@H]1CCCCO[C@@H](CN(C)Cc2ccc(C(F)(F)F)cc2)[C@@H](C)CN([C@@H](C)CO)C(=O)c2cc(NC(=O)c3ccccc3)ccc2O1	?	·
COc1ccc(CN(C)C[C@@H]2Oc3ccc(NC(=O)Cc4cn(C)c5ccccc45)cc3C(=O)N([C@@H](C)CO)C[C@@H]2C)cc1	-2	1
C[C@@H]1CN([C@@H](C)CO)C(=O)c2cc(NC(=O)Nc3ccc(F)cc3)ccc2O[C@@H](C)CCCCO[C@H]1CN(C)S(=O)(=O)c1cccs1	-19	-4
COc1ccc(CN(C)C[C@H]2OCCCC[C@H](C)Oc3ccc(NC(=O)Nc4ccc(OC)cc4)cc3C(=O)N([C@H](C)CO)C[C@@H]2C)cc1	-31	-29
C[C@@H]1CN([C@H](C)CO)S(=O)(=O)c2ccc(/C=C/c3ccccc3)cc2O[C@H]1CN(C)C(=O)Nc1cccc(F)c1	?	·
CC=Cc1ccc2n(c1=O)C[C@H]1[C@H](CO)[C@@H](C(=O)NCc3ccncn3)N(C(=O)C3CCCC3)[C@@H]21 (mixture of isomers)	21	18
C[C@@H]1CN([C@H](C)CO)C(=O)c2cc(NS(=O)(=O)c3ccccc3)ccc2O[C@@H](C)CCCCO[C@H]1CN(C)S(=O)(=O)c1ccc(F)cc1	?	·
CN1C(=O)c2cc(NC(=O)c3cccs3)ccc2OC[C@H]2O[C@@H](CC(=O)NCC(F)(F)F)CC[C@H]21	-2	-3
O=C(c1ccccn1)N1CC(=O)N2[C@H](CO)[C@@H](c3ccc(C#CC4CCCC4)cc3)[C@@H]2C1	-7	-29
CC(C)NC(=O)N(C)C[C@H]1Oc2ncc(C#Cc3ccc(F)cc3)cc2C(=O)N([C@H](C)CO)C[C@@H]1C	5	8
Cc1noc(C)c1NC(=O)Nc1ccc2c(c1)CC(=O)N([C@@H](C)CO)C[C@@H](C)[C@H](CN(C)Cc1ccncc1)O2	24	15
N#C[C@@H]1[C@H](c2ccccc2-c2ccccc2F)[C@@H](CO)N1C(=O)c1cccc(F)c1	-4	-3
C[C@@H]1CN([C@H](C)CO)S(=O)(=O)c2ccc(-c3ccncc3)cc2O[C@H]1CN(C)C(=O)CC1CC1	3	6
C[C@@H]1CN([C@@H](C)CO)C(=O)c2c(c3ccccc3n2C)-c2ccccc2CO[C@H]1CN(C)Cc1ccc(Cl)c(Cl)c1	17	6
C[C@@H]1CCCCO[C@@H](CN(C)C(=O)Nc2ccccc2)[C@@H](C)CN([C@H](C)CO)C(=O)c2cc(NC(=O)C3CCCCC3)ccc2O1	10	-9
Cc1noc(C)c1NC(=O)N[C@@H]1C=C[C@@H](CC(=O)NCc2ccc(Cl)c(Cl)c2)O[C@H]1CO	11	8
C[C@H](CO)N1C[C@H](C)[C@@H](CN(C)C(=O)Nc2ccc(C(F)(F)F)cc2)Oc2c(NC(=O)Nc3ccccc3)cccc2C1=O	-16	-7
C[C@@H]1CN([C@H](C)CO)C(=O)c2cc(C3=CCCC3)cnc2O[C@@H]1CN(C)Cc1cccc(F)c1	-14	-10
CNC[C@H]1Oc2ccc(NS(=O)(=O)c3ccc(C)cc3)cc2C(=O)N([C@@H](C)CO)C[C@@H]1C	3	-7
C[C@@H]1CN([C@@H](C)CO)S(=O)(=O)c2ccc(Br)cc2O[C@@H]1CN(C)Cc1ccncc1	-17	-13
Cc1noc(C)c1NC(=O)Nc1ccc2c(c1)C(=O)N([C@H](C)CO)C[C@H](C)[C@@H](CN(C)C(=O)NC1CCCCC1)OCCCC[C@H](C)O2	22	15
Cc1noc(C)c1NC(=O)N(C)C[C@@H]1OCCCC[C@H](C)Oc2ccc(N(C)C)cc2C(=O)N([C@@H](C)CO)C[C@@H]1C	17	11
Cc1noc(C)c1S(=O)(=O)Nc1ccc2c(c1)C(=O)N([C@H](C)CO)C[C@H](C)[C@@H](CN(C)S(=O)(=O)c1c(C)noc1C)OCCCC[C@@H](C)O2	15	2
C[C@@H]1CN([C@H](C)CO)C(=O)c2cc(/C=C/c3ccccc3)cnc2O[C@H]1CN(C)C(=O)c1ccc(F)cc1	?	·
CO[C@H]1CN(C)C(=O)c2cc(NC(=O)Nc3cccc(F)c3)ccc2OC[C@H](C)N(C(C)=O)C[C@@H]1C	6	8

3 neighbouring compounds already listed, quoted:
SMILES	Vaccinia stage	Vaccinia stage Venus
C[C@H]1CCCCO[C@@H](CN(C)Cc2ccc(C(F)(F)F)cc2)[C@@H](C)CN([C@@H](C)CO)C(=O)c2cc(NC(=O)c3ccccc3)ccc2O1	?	·
COc1ccc(CN(C)C[C@@H]2Oc3ccc(NC(=O)Cc4cn(C)c5ccccc45)cc3C(=O)N([C@@H](C)CO)C[C@@H]2C)cc1	-2	1
C[C@@H]1CN([C@@H](C)CO)C(=O)c2cc(NC(=O)Nc3ccc(F)cc3)ccc2O[C@@H](C)CCCCO[C@H]1CN(C)S(=O)(=O)c1cccs1	-19	-4

Further entries follow:
SMILES	Vaccinia stage	Vaccinia stage Venus
O=C(C[C@H]1CC[C@@H]2[C@H](COC[C@H](O)CN2CC2CCOCC2)O1)NCc1ccc(Cl)cc1	10	1
CC(C)NC(=O)Nc1ccc2c(c1)C(=O)N([C@@H](C)CO)C[C@H](C)[C@@H](CN(C)C(=O)Nc1ccc3c(c1)OCO3)OCCCC[C@H](C)O2	18	17
C[C@@H]1CN([C@H](C)CO)C(=O)c2cc(C#C[C@@H](C)O)cnc2O[C@@H]1CN(C)CC1CCOCC1	5	10
C[C@H](CO)N1C[C@H](C)[C@H](CN(C)CC2CC2)Oc2ccc(NS(=O)(=O)c3ccc(Cl)cc3)cc2CC1=O	-3	-4
C[C@@H]1CN([C@H](C)CO)C(=O)c2cc(C#Cc3cccc(F)c3)cnc2O[C@H]1CN(C)C(=O)C1CCCCC1	?	·
O=C(C[C@@H]1C=C[C@H](NC(=O)C2CCC2)[C@@H](CO)O1)Nc1nccs1	10	4
Cc1noc(C)c1NC(=O)N(C)C[C@@H]1OCCCC[C@@H](C)Oc2ccc(NC(=O)NC3CCCCC3)cc2C(=O)N([C@H](C)CO)C[C@H]1C	28	14
Cc1noc(C)c1NC(=O)Nc1cccc2c1O[C@H](CN(C)Cc1ccccc1)[C@H](C)CN([C@H](C)CO)C2=O	-4	2
Cn1cnc(S(=O)(=O)N[C@@H]2CC[C@@H](CC(=O)Nc3ccc(-c4ccccc4)cc3)O[C@H]2CO)c1	12	13
COc1ccc(CNC(=O)C[C@H]2C[C@H]3c4cc(NC(=O)CN(C)C)ccc4O[C@H]3[C@@H](CO)O2)cc1	1	5
Cc1ccc(S(=O)(=O)N[C@@H]2CC[C@H](CC(=O)NCc3ccccc3F)O[C@@H]2CO)cc1	8	5
COC(=O)c1cn(-c2cccc(N)c2)nn1	3	1
COc1ccc(CN(C)C[C@@H]2Oc3ccc(NC(=O)C4CC4)cc3C(=O)N([C@@H](C)CO)C[C@@H]2C)cc1	2	7
CO[C@H]1CN(C)C(=O)c2cc(NC(=O)C3CCOCC3)ccc2OC[C@@H](C)N(C)C[C@H]1C	11	6
CCC(=O)N(C)C[C@H]1Oc2ncc(C#CCC3CCCC3)cc2C(=O)N([C@@H](C)CO)C[C@@H]1C	-2	-1
C[C@H](CO)N1C[C@H](C)[C@@H](CN(C)S(=O)(=O)c2ccc(Cl)cc2)Oc2ccc(NS(=O)(=O)c3ccc(F)cc3)cc2C1=O	-5	10
O=C(C1CCCC1)N1[C@H](CO)[C@H]2c3ccccc3N(S(=O)(=O)c3ccc(F)cc3)C[C@H]21	11	14
C[C@H]1CN([C@@H](C)CO)C(=O)c2cc(C#CCN(C)C)cnc2O[C@H]1CN(C)C(=O)CCN1CCCCC1	43	21
O=C(CCN1CCCCC1)NCC[C@H]1CC[C@@H](NC(=O)C2CCCC2)[C@@H](CO)O1	4	-1
C[C@H](CO)N1C[C@H](C)[C@H](CN(C)C(=O)Nc2ccc(C(F)(F)F)cc2)OCCCC[C@H](C)Oc2ccc(NC(=O)CCC(F)(F)F)cc2C1=O	-8	-9
CCC(=O)N(C)C[C@H]1Oc2cc(-c3ccc(F)cc3)ccc2S(=O)(=O)N([C@@H](C)CO)C[C@H]1C	-30	-24
O=C(C[C@@H]1C[C@H]2c3cc(NC(=O)Nc4ccccc4)ccc3O[C@H]2[C@H](CO)O1)NCC(F)(F)F	11	3
COc1ccc(S(=O)(=O)Nc2ccc3c(c2)C(=O)N([C@H](C)CO)C[C@@H](C)[C@H](CN(C)S(=O)(=O)c2ccc(OC)cc2)O3)cc1	4	9
C[C@@H]1CN([C@@H](C)CO)C(=O)c2cc(NC(=O)CCC(F)(F)F)ccc2O[C@@H](C)CCCCO[C@H]1CN(C)C(=O)CCCN(C)C	6	-8
COc1ccc(NC(=O)Nc2cccc3c2O[C@H](CN(C)S(C)(=O)=O)[C@@H](C)CN([C@@H](C)CO)C3=O)cc1	12	5

Going on with the list:
SMILES	Vaccinia stage	Vaccinia stage Venus
COCCNC(=O)C[C@@H]1CC[C@H](NC(=O)NC2CCCCC2)[C@@H](CO)O1	7	2
CCCNC(=O)Nc1ccc2c(c1)C(=O)N(C)C[C@@H](OC)[C@H](C)CN(C(=O)C1CCC1)[C@@H](C)CO2	3	0
Cc1cc(C(=O)Nc2cccc3c2O[C@H](CN(C)S(=O)(=O)c2cccs2)[C@H](C)CN([C@H](C)CO)C3=O)n(C)n1	21	17
Cc1noc(C)c1NC(=O)N(C)C[C@H]1Oc2cc(C#CCC(C)C)ccc2S(=O)(=O)N([C@H](C)CO)C[C@@H]1C	-5	-14
CCC(=O)N(C)C[C@@H]1Oc2cc(C#CC(C)C)ccc2S(=O)(=O)N([C@@H](C)CO)C[C@H]1C	-14	-9
C[C@@H]1CN([C@@H](C)CO)S(=O)(=O)c2ccc(-c3ccccc3)cc2O[C@H]1CN(C)C	-13	-8
O=C(Nc1cccc(F)c1)N1CCCCN2[C@H](CO)[C@@H](c3ccc(C#Cc4cccnc4)cc3)[C@@H]2C1	?	·
CO[C@@H]1CN(C)C(=O)c2cc(NC(=O)c3ccc(F)cc3)ccc2OC[C@H](C)N(C(=O)CN(C)C)C[C@@H]1C	18	12
O=C(C1CCCC1)N1CC(=O)N2[C@H](CO)[C@@H](c3ccc(-c4ccccc4F)cc3)[C@H]2C1	?	·
CN1c2ccc(C#Cc3cccnc3)cc2[C@@H]2[C@@H](CCN2C(=O)Cc2cccnc2)[C@@H]1CO	22	10
C[C@@H]1CN([C@@H](C)CO)C(=O)Cc2cc(NC(=O)Nc3ccc(C(F)(F)F)cc3)ccc2O[C@@H]1CN(C)C(=O)Nc1cccc2ccccc12	-5	2
CN1C(=O)c2cc(NC(=O)c3ccccc3)ccc2OC[C@H]2O[C@H](CC(=O)O)CC[C@@H]21	-6	-2
N#Cc1cccc(-c2ccc([C@@H]3[C@H](CO)N4CCCCN(C(=O)Cc5ccccc5)C[C@@H]34)cc2)c1	?	·
COc1ccccc1NC(=O)N1C[C@@H]2[C@H](c3ccccc31)[C@@H](CO)N2C(=O)c1ccccc1	8	5
CN1CCN(C(=O)C[C@H]2CC[C@H]3[C@H](COc4ccc(NC(=O)C5CC5)cc4C(=O)N3C)O2)CC1	18	8
CS(=O)(=O)N1C[C@H](O)COC[C@H]2O[C@@H](CC(=O)NCc3ccccc3)CC[C@@H]21	1	8
COc1ccc(-c2ccc([C@H]3[C@@H](CO)N(C(=O)C4CCC4)[C@H]3C#N)cc2)cc1	-14	-10
C[C@@H]1CN([C@H](C)CO)C(=O)c2cc(C#CCN(C)C)cnc2O[C@H]1CN(C)Cc1ccccc1	2	0
CN1C(=O)c2cc(NC(=O)C3CCCC3)ccc2OC[C@H]2O[C@H](CC(=O)NCC(F)(F)F)CC[C@@H]21	9	4
C[C@@H](O)C#Cc1cnc2c(c1)C(=O)N([C@@H](C)CO)C[C@H](C)[C@@H](CN(C)C(=O)c1ccc(F)cc1)O2	19	3
C[C@H](NC(=O)C[C@H]1CC[C@@H]2[C@H](COC[C@H](O)CN2C)O1)c1ccccc1	13	10
C[C@@H]1CN([C@@H](C)CO)C(=O)c2cccc(NC(=O)C3CCOCC3)c2O[C@@H]1CN(C)C(=O)Nc1cccc2ccccc12	16	11
CCCN1[C@@H]2c3ccc(C4=CCCC4)c(=O)n3C[C@@H]2[C@@H](CO)[C@@H]1C(=O)OC	12	25
CCN(C[C@H]1[C@H](c2ccc(-c3cccnc3)cc2)[C@@H](CO)N1C(C)=O)C(C)=O	3	2
C[C@@H]1CN([C@H](C)CO)C(=O)c2cccc(NS(=O)(=O)c3ccccc3)c2O[C@@H]1CN(C)C(=O)NC1CCCCC1	13	9
C[C@H]1CN([C@@H](C)CO)C(=O)Cc2cc(NS(=O)(=O)c3cccs3)ccc2O[C@H]1CN(C)S(C)(=O)=O	1	-3
C[C@@H]1CN([C@H](C)CO)C(=O)CCCn2nncc2CO[C@@H]1CN(C)Cc1ccc(-c2ccccc2)cc1	?	·
C[C@H](CO)N1C[C@H](C)[C@H](CN(C)Cc2ccc3c(c2)OCO3)Oc2c(NC(=O)c3ccc(-c4nccs4)cc3)cccc2C1=O	-5	1
CC(C)NC(=O)N(C)C[C@H]1Oc2ccc(NS(=O)(=O)c3ccc(F)cc3)cc2CC(=O)N([C@@H](C)CO)C[C@H]1C	-11	-3

Compound profiles, as listed above.
CO[C@@H]1CN(C)C(=O)c2cc(NC(=O)c3ccc(F)cc3)ccc2OC[C@H](C)N(C(=O)CN(C)C)C[C@@H]1C reads Vaccinia stage = 18; Vaccinia stage Venus = 12
C[C@@H](O)C#Cc1cnc2c(c1)C(=O)N([C@@H](C)CO)C[C@H](C)[C@@H](CN(C)C(=O)c1ccc(F)cc1)O2 reads Vaccinia stage = 19; Vaccinia stage Venus = 3

An excerpt (hit frequency here may not be typical).
